# Source: PubChem
# KCNQ2 pot: KCNQ2 (rat) channel potentiation. B-score at 10 µM. O88943. hit rate 0.54% among 310,000. CHO-K1 KCNQ2, FluxOR thallium flux fluorescence; hits give high values;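 active means fluorescence ratio B-score at least 3 SD of library B-scores, with initial fluorescence B-score within 3 SD, cut at about 5.3 in these data; same plate scores as AID 2156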;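 further: B-score of peak minus minimum over baseline fluorescence ratio after K+ and Tl+ stimulus; positive B-score means potentiation of KCNQ2 with more thallium influx and brighter signal; only the inactives scoring about 0 or higher are listed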
# Target sequence (O88943 whole entry, looked up): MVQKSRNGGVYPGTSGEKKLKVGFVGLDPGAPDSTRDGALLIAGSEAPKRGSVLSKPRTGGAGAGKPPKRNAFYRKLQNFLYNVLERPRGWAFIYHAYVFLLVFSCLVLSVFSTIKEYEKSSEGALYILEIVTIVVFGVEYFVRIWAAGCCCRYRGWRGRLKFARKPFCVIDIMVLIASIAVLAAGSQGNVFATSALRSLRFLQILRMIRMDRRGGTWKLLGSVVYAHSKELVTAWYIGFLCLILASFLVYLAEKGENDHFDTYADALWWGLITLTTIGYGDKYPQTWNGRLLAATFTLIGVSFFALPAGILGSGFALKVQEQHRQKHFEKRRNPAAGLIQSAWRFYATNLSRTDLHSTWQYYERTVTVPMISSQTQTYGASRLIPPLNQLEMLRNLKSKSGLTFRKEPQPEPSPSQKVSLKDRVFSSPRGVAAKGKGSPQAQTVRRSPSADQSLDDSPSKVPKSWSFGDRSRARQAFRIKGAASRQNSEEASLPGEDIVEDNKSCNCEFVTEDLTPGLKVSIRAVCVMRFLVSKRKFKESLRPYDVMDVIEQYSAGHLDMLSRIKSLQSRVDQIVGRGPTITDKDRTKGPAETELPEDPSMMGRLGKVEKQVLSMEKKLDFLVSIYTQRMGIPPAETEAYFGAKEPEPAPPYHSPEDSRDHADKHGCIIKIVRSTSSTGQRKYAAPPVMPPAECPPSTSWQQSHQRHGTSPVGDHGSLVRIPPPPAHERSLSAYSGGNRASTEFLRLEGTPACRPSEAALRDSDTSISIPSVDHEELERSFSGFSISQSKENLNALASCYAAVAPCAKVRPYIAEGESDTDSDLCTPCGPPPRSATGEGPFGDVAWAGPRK
# KCNQ2 pot baseline: further read-out of KCNQ2 pot, marked with its call; B-score; compound at 10 µM; measured here: initial fluorescence intensity artifact check;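 brightness before thallium and not channel activity; 0 = typical well and far values either way flag optical interference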
# An asterisk follows results filed as active. This is a subset; rates above refer to the full screens.
# Sample of the layout, 3 compounds:
SMILES,KCNQ2 pot,KCNQ2 pot baseline
COC(=O)c1cc(N2C(=O)C3C4C=CC(CC4)C3C2=O)ccc1Cl (stereo not given),1.8,0.3
N#Cc1ccc(-c2csc(NC(=O)c3ccc(N4C(=O)CCC4=O)cc3)n2)cc1,0.65,-0.42
O=C(CN1C(=O)NC(c2ccccc2)(c2ccccc2)C1=O)NCCNCCO,0.24,0.56

# Main list, from the first entry:
SMILES,KCNQ2 pot,KCNQ2 pot baseline
COC(=O)c1cc(N2C(=O)C3C4C=CC(CC4)C3C2=O)ccc1Cl (stereo not given),1.8,0.3
N#Cc1ccc(-c2csc(NC(=O)c3ccc(N4C(=O)CCC4=O)cc3)n2)cc1,0.65,-0.42
O=C(CN1C(=O)NC(c2ccccc2)(c2ccccc2)C1=O)NCCNCCO,0.24,0.56
Cc1ccc(N(CC(=O)NC(C)C)C(=O)CCC(=O)Nc2ccccn2)cc1,1.1,-0.14
COc1ccc2oc(C(=O)N(CC(C)C)C3CCS(=O)(=O)C3)c(C)c2c1 (stereo not given),0.54,0.13
COc1cc(C(=O)N[C@@H](Cc2c[nH]c3ccccc23)C(=O)O)cc(OC)c1OC,1,-0.17
Cc1ccc(Nc2ncccc2C(N)=O)cc1[N+](=O)[O-],2.1,0.59
CC(C)NC(=S)N/N=C/c1sc(N2CCCCC2)nc1-c1cccs1,1.7,-1.4
COC(=O)c1nc(NC(=O)C(C)C)n[nH]1,0.34,-0.37
COc1ccc(C2(CNC(=O)c3ccccc3[N+](=O)[O-])CCOCC2)cc1,0.3,-0.3
CCC(=O)c1ccc(OCC(=O)Nc2ccccc2N2CCCCC2)cc1,0.6,-0.31
Cc1nnnn1-c1ccc(CC(=O)O)cc1,0.85,-0.77
O=C(O)C1CCC(CNCc2ccccc2Cl)CC1 (stereo not given),0.28,-0.96
COc1cc(C(=O)Nc2sc3c(c2C(=O)O)CCC(C)C3)cc(OC)c1OC (stereo not given),1.3,-0.03
Cc1cc(=O)n(C(C)(C)C)c(=O)n1Cc1ccccc1,0.29,-0.16
Cc1nn(-c2ccccc2)nc1C(=O)NN,0.81,2.1
CCOC(=O)c1ccc(-n2c(C)nc3ccccc3c2=O)cc1,0.15,0.94
CCN=C1SC(CC(=O)Nc2ccc(N3CCOCC3)cc2)C(=O)N1CC (stereo not given),1.5,1.4
O=C(CNCCO)NC12CC3CC(CC(C3)C1)C2,0.06,-0.04
COc1ccc(-c2nc3ccccc3o2)cc1NC(=O)c1ccc(Br)o1,0.15,-0.11

# Quoted from the results shown for reference:
SMILES,KCNQ2 pot,KCNQ2 pot baseline
COC(=O)c1cc(N2C(=O)C3C4C=CC(CC4)C3C2=O)ccc1Cl (stereo not given),1.8,0.3
N#Cc1ccc(-c2csc(NC(=O)c3ccc(N4C(=O)CCC4=O)cc3)n2)cc1,0.65,-0.42
O=C(CN1C(=O)NC(c2ccccc2)(c2ccccc2)C1=O)NCCNCCO,0.24,0.56

# (more compounds)
SMILES,KCNQ2 pot,KCNQ2 pot baseline
CCOc1ccc(C(=O)NCC(=O)OC2CCOC2=O)cc1OCC (stereo not given),0.39,-0.76
Cc1ccccc1OCC(=O)OCC(=O)Nc1ccc(N2CCOCC2)cc1,0.02,-2.6
COc1ccc(-c2nnc(SCC(=O)Nc3cc(C)on3)n2C)cc1OC,1.3,-2
Cn1c(-c2ccc(C(=O)c3ccccc3)s2)nc2ccccc21,0.28,-3.2
CN(C)C(=O)CSc1nnc([C@H](Cc2c[nH]c3ccccc23)NC(=O)OC(C)(C)C)o1,0.26,0.24
COc1ccc(C)cc1NC(=O)c1nnn(Cc2cc(C)ccc2C)c1N,1.5,-0.02
CC1=CCC2C(=O)N(Cc3ccccc3)C(=O)C2C1 (stereo not given),0.86,0.45
COc1ccc(NC(=O)c2ccccc2O)c(OC)c1,0.72,1.6
O=C(O)C/C(=C\c1ccc(N2CCOCC2)c([N+](=O)[O-])c1)c1nc2ccccc2s1,1.1,0.32
O=[N+]([O-])c1nn(-c2ccc3c(c2)OCCO3)n(O)c1=NC1CCCC1,1.2,0.05
CC1CCN(c2ccc(C(=O)NCc3ccc4c(c3)OCO4)cc2[N+](=O)[O-])CC1,1.7,-1.5
O=S(=O)(c1cc(Cl)ccc1Cl)N1CCN(Cc2ccco2)CC1,0.02,-0.27
O=C1CC(c2ccc(S(=O)(=O)NC3CC3)cc2)CN1 (stereo not given),0.83,-0.08
Fc1ccccc1Cn1cnc(NC(=S)NCCc2ccccc2)n1,0.63,1.2
CC1(C)CC(=O)C(N=Nc2cc3c(cc2[N+](=O)[O-])OCCO3)=C(O)C1,0.16,0.43
Cn1c2ccc(CC(=O)O)cc2c2cc(CC(=O)O)ccc21,1.1,-0.3
CC(C)CC(=O)N=C1SC2CS(=O)(=O)CC2N1Cc1ccccc1 (stereo not given),1.3,2.3
Cc1ccccc1OCCN1C(=O)c2ccccc2C1=O,0.62,-2.5
COCCNC(=O)CCSc1nc(-c2ccc(OC)cc2)cc(C(F)(F)F)n1,0.56,-0.74
O=c1o[nH]c(-c2ccccc2)c1-c1ccccc1,0.94,-0.15
COc1cccc(C2c3[nH]c4ccccc4c3C[C@H]3C(=O)N(C)CC(=O)N23)c1 (stereo not given in full),0.44,-0.4
COC(=O)c1cc(NS(=O)(=O)c2cccc(Cl)c2)ccc1N1CCOCC1,2.4,-1.5
Cc1cc([N+](=O)[O-])nn1CCCC(=O)NCc1ccccc1,1.2,1
C=CCNC(=O)Nc1ccc(Br)cc1Cl,0.06,0.9
Cc1ccc(C)c(S(=O)(=O)N2C(=S)NC(=O)C2C(C)C)c1 (stereo not given),0.62,-1.2
CC(=O)Nc1ccc(Oc2ccc3nc(C)[nH]c3c2)cc1,3.1,1.1
Cc1[nH]c2ccccc2c1C(=O)CN1CCN(C/C=C/c2ccccc2)CC1,0.53,-0.01
Cn1c(CSCCOc2ccccc2)n[nH]c1=S,1.2,-0.05
O=C(Nc1nnc(-c2cccnc2)s1)c1cccs1,1.4,-0.53
O=C(NC1CC1)C1CCN(C2CCN(C(=O)CCOc3ccccc3)CC2)CC1,0.31,1.2
O=C(c1ccccc1[N+](=O)[O-])N1CCCC(C(=O)N2CCCCCC2)C1 (stereo not given),1.1,-0.73
O=C(c1cc(COc2ccc(F)c(F)c2)on1)N1CCN(C2CCCCC2)C(=O)C1,0.18,0.96
O=C(Nc1nc(-c2ccc3c(c2)OCCO3)cs1)c1ccco1,0.4,0.68
CCOC(=O)c1c(NC(=O)CSc2nnc(-c3ccc(Cl)cc3)o2)sc2c1CCC2,0.11,0.02
CC(=O)CC(=O)Nc1ccccc1NC(C)=O,1.1,0.88
Nc1nonc1-n1nnc(C(=O)N/N=C/c2ccccn2)c1CNc1ccccc1,1,-0.02
NC(=O)c1c(NC(=O)c2ccccc2Cl)sc2c1CCC2,0.86,-0.5
O=C(CSCc1ccc(Cl)cc1)N/N=C/c1ccccc1,1.9,-0.08
COc1cccc(C(=O)CSc2nnc(CNS(C)(=O)=O)n2-c2ccc(C)cc2)c1,1.8,0.89
CCN(CC)CCn1c(=N)n(CC(O)c2ccc(OC)c(OC)c2)c2ccccc21 (stereo not given),0.29,-1.2

# Compound profiles, from the list above. Screens in order: KCNQ2 pot	KCNQ2 pot baseline
# C=CCNC(=O)Nc1ccc(Br)cc1Cl is listed as 0.06	0.9
# Cc1cc([N+](=O)[O-])nn1CCCC(=O)NCc1ccccc1 is listed as 1.2	1
# O=C(CSCc1ccc(Cl)cc1)N/N=C/c1ccccc1 is listed as 1.9	-0.08

# Next part.
SMILES,KCNQ2 pot,KCNQ2 pot baseline
CC(=O)c1ccc(NC(=O)C(C)OC(=O)C2CC(=O)N(c3ccc4c(c3)OCCO4)C2)cc1 (stereo not given),0.01,-1
O=C(c1cccc(Cl)c1)N1CCC2(CC1)NCCc1[nH]cnc12,0.42,0.04
O=C(c1ccc(Cl)cc1Cl)N1CCN(c2ccc(N3CCOCC3)nn2)CC1,0.05,0.29
Cc1nnc(SCC(=O)Nc2ncc3c(n2)CC(c2ccccc2)CC3=O)s1 (stereo not given),1.2,0.88
CCCCNC(=O)c1onc(CSc2cccc(C)c2)c1C(=O)O,3.1,1
O=C(c1ccco1)N1CCN(C(=O)c2cnn3c2NC(c2cccs2)CC3C(F)(F)F)CC1 (stereo not given),0.75,2.3
Cc1ccc(CC(=O)Nc2ccc([N+](=O)[O-])cc2C)cc1,1.5,0.74
O=C(Nc1ccnn1C1CCN(Cc2ccccc2)CC1)C1CCCC1,0.6,1.2
Cc1ccccc1S(=O)(=O)NCc1ccc(N2CCN(C)CC2)cc1,0.13,-0.67
O=C(NCc1ccc2c(c1)OCO2)c1cccc(S(=O)(=O)N2CCCCC2)c1,1.5,-1.7
O=C(NCCNC(=O)c1ccccn1)c1ccc(Cl)cc1,0.22,0.52
Cc1ccc(N=C(NO)c2nonc2N)cc1,2,0.04
COc1ccc(Cc2nc(-c3ccc(Cl)cc3)no2)cc1,0.47,-0.4
Cc1cccc(CN2C[C@]34C=C[C@@H](C[C@@H]3S2(=O)=O)O4)c1,1.7,0.14
CC1(C)C(=O)OC(c2c3ccccc3cc3ccccc23)C(C)(C)C1=O (stereo not given),6.2*,1.2*
CC(=O)Nc1ccc(OCC(O)CN2CCN(c3ccccc3Cl)CC2)cc1 (stereo not given),2.1,-0.01
COc1ccccc1NC(=O)c1cccnc1,0.52,0.85
NC(=O)c1cccc(S(=O)(=O)N2CCCCC2)c1,0.94,-0.01
CCOC(=O)/C(C#N)=C/Nc1ccccc1NS(=O)(=O)c1cccc(C(C)=O)c1,2,0.57
Cc1ccccc1C(=O)Nc1ccc(Br)c(C)n1,0.14,-0.02
COc1ccc(OC)c(NC(=O)c2ccc3c(c2)OCO3)c1,0.79,0.19
CC(C)N(CCc1ccncc1)C(=O)Nc1ccc(Cl)c(Cl)c1,0.93,-0.23
Cn1nc(C(=O)NNC(=O)c2ccc(Cl)cc2)ccc1=O,2.3,-0.98
Cc1cccc(C(=O)NC2CCN(S(=O)(=O)c3ccccc3F)CC2)c1,0.59,1.1
O=C(O)c1cc(NC(=O)c2ccc3c(c2)C(=O)N(Cc2cccnc2)C3=O)cc(C(=O)O)c1,0.32,0.43
CCc1ccc(CNCc2cccnc2)cc1,0.23,-1.8
Cc1ccc(NC(=O)Cn2nnc(C(=O)NCc3cccs3)c2N)cc1,1.6,-1.9
CCCc1cc(=O)[nH]c(SCC(=O)c2c(N)n(CC(C)C)c(=O)n(C)c2=O)n1,1,-1.4
COc1cccc(NC(=O)OCCN2CCN(Cc3ccccc3)CCC2=O)c1,1.3,0.53
Cc1ccc([N+](=O)[O-])cc1S(=O)(=O)Nc1ccc(OCC(=O)N2CCOCC2)cc1,0.13,-0.15
CC(C)CCNC(=O)c1onc(CSc2ccc(F)c(F)c2)c1C(=O)NCCC(C)C,2,0.42
Clc1ccc(NC2(c3nnnn3C3CCCCC3)CCCCC2)cc1,0.03,3.8
O=C(O)CC/C(=N/NC(=O)CNC(=O)C(c1ccccc1)c1ccccc1)c1ccccc1,1.7,-0.21
CCCCC(=O)NC1(C(F)(F)F)C(=O)Nc2c1c(=O)n(C)c(=O)n2C (stereo not given),1.3,0.1
CC(C)OCCCNC(=S)NNC(=O)C(c1ccccc1)c1ccccc1,0.19,-0.26
O=C1c2nc3cc(-c4ccco4)[nH]n3c(=O)c2CN1C1CCCCC1,2.9,-0.19
O=C(Nc1ccn(Cc2ccccc2F)n1)c1ccc(COc2ccc(Br)cc2)cc1,0.68,-0.69
CCCCCC(=O)NNC(=O)c1c(O)c2ccccc2n(CC)c1=O,2.1,1
COc1ccc(C)cc1NC(=O)CCS(=O)(=O)c1cccc2nonc12,0.05,-0.27
CCCCNC(=O)N(C)c1nncnc1C(=O)NC,0.3,-0.73
CCCCOc1ccccc1C1C(C(N)=O)=C(C)Nc2nnnn21 (stereo not given),1.9,-1.8
CCOc1cc(/C=C2/C(=O)ON=C2C)ccc1OCc1ccccc1F,1.2,0.63
Nc1ncnc2c1ncn2[C@@H]1O[C@H](CO)C[C@@H]1O,0.42,-1
Nc1ccc(NC(=O)c2ccc(C(=O)Nc3ccc(N)cc3)cc2)cc1,0.24,0.63
O=C(Nc1cnn(Cc2c(Cl)cccc2Cl)c1)c1ccc([N+](=O)[O-])cc1,0.24,0.11
CCc1nnc(NC(=O)C2=CCN(S(=O)(=O)c3ccc(F)cc3)CC2)s1,0.46,1.5
CC(C)NS(=O)(=O)c1ccc(OCC(=O)N2CCc3ccccc3C2)cc1,0.35,-0.42
Cc1ccc(NC(=S)N2CCCCC2CO)cc1C (stereo not given),0.06,-0.97
Cc1ccc(NC(=S)NCc2ccccc2)cc1[N+](=O)[O-],2.2,0.08
O=C1c2ccccc2C(=O)N1OCc1cccc(Cl)c1,0.88,0.05
O=C(Nc1nc2ccc(SC(F)F)cc2s1)c1ccc(NS(=O)(=O)c2ccc(F)c(F)c2)cc1,2.3,-0.76
O=C(CN1C(=O)C2C3C=CC(C3)C2C1=O)Nc1nc(-c2ccccn2)cs1 (stereo not given),0.59,-0.83
CC1=C(C(=O)OC(C)C)C(c2ccc3c(c2)OCO3)NC(=O)N1 (stereo not given),0.47,1.1
CCOc1ccc(-c2cc(CCCC(=O)N3CCN(c4ccc(OC)cc4)CC3)no2)cc1,0.99,0.87
Nc1nc(SCc2c(Cl)cccc2Cl)n[nH]1,0.4,-0.48
O=C(c1ccc(S(=O)(=O)N2CCC(c3nc4ccccc4[nH]3)CC2)cc1)N1CCOCC1,1.2,0.34
C/C(=N\NC(=O)c1c(Cl)cnn1C)c1ccc(NC(=O)c2ccncc2)cc1,0.83,1.9
O=C(Nc1ccccc1)OC1CCS(=O)(=O)C1 (stereo not given),0.44,-0.56
CCN(CC)CCCNC(=O)c1oc2ccc3c(c2c1C)C(O)CC(C)(C)O3 (stereo not given),0.73,-0.06
CCCP(=O)(CCC)CCP(=O)(c1ccccc1)c1ccccc1,1,-1.1
Cc1ccc(O)c(C(=O)c2cnc3c(c2)CN(C)C(=O)N3)c1,0.53,-0.83
